Screening results as filed in PubChem BioAssay.
Sfp PPTase inh – inhibitors of Bacillus subtilis Sfp phosphopantetheinyl transferase; Q9F4F7; Biochemical Sfp PPTase activity, qHTS; Potency, µM, for the others: max response, negative = inhibition, hits mostly inhibitors; 310,000 compounds, 3.5% hits; AID 1490; active = well fitted inhibition curve with a large enough effect; inconclusive = small, poorly fitted or top-dose-only effect, or another doubt; inactive = no such curve, though single readings can be large or run the other way;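 note: the enzyme is Sfp with the accession as filed and its product quenches rhodamine fluorescence; potency is the fitted concentration of half-maximal effect; 0% = enzyme reaction without inhibitor and -100% = no enzyme wells; top concentration of the series not given in the record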
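With Hepes-Na pH 7.6 buffer containing 10 mM MgCl2, Sfp (15 nM) modified BHQ-2-YbbR (12.5 uM) using rhodamine-CoA (5 uM). Two reads 30 minutes apart at 525/598 nm yielded each well's rate.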
ClpP mod – qHTS Assay for Activators of ClpP. 340,000 compounds, 1.9% hits. Potency, µM (top dose mostly 57.5 µM), without a hit: at the highest dose activity change, negative = active. purified B. subtilis ClpP, FRET peptide cleavage, 20 min; active = well fitted falling curve with a large enough effect; inconclusive = small, poorly fitted or top-dose-only effect; inactive = no such curve, though single readings can be large or run the other way; note: potency is the fitted concentration of half-maximal effect; the source files actives as falling curves though it sought activators and does not explain the sign; nearly all actives have a fitted effect of over 65% in size; many hits overshoot -100%
Target sequence (P80244 whole entry, looked up): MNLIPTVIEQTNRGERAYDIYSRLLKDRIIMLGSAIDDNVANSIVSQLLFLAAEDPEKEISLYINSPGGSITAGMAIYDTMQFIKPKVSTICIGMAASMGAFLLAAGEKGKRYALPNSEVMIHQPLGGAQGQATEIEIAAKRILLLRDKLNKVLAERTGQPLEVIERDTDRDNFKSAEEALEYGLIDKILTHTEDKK
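ClpP 10 microg/mL final, pH 8 Tris/KCl buffer with BSA, glycerol, Tween-20; compound pinned in; FRET-FV substrate; RT 20 min; Ex320/Em430; ΔFRET vs ADEP 5.8 microM, DMSO, no enzyme.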
TRPV1 potentiator – enhances activation of the human vanilloid receptor TRPV1; AID 540277; 320,000 compounds, 0.02% hits; potentiation, % at 8.33 µM; TRPV1-expressing cells, Fluo-8 calcium influx, capsaicin EC20 potentiation; host cell line not named in the record; control for the full effect not named in the record; Q8NER1; active means potentiation above 80%; inconclusive means 30% to 80%; inactive means below 30%; note: 0% is about no effect
Target sequence (Q8NER1 whole entry, looked up): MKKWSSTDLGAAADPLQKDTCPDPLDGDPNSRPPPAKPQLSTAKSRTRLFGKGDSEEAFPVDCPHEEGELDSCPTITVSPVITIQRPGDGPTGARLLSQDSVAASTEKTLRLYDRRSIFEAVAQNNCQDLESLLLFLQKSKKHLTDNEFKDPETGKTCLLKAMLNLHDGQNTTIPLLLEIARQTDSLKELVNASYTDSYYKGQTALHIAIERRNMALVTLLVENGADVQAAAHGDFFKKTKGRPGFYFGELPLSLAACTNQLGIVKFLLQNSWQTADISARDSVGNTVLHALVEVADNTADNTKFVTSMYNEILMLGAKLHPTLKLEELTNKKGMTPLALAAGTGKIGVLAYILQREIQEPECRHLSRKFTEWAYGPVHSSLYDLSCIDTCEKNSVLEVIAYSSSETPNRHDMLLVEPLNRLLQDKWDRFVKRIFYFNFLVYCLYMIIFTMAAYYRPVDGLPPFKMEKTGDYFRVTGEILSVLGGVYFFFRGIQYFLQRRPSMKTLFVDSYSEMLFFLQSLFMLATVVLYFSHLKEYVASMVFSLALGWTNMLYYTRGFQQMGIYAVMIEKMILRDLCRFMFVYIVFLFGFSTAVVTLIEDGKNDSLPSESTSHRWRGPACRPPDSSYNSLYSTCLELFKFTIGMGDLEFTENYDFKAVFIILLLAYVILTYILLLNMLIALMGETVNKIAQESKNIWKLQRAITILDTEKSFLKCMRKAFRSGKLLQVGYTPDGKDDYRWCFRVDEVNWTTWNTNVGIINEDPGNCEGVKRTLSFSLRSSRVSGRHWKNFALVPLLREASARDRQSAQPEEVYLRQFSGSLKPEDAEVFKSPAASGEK
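Cells expressing TRPV1 were dye-loaded with Fluo-8 and read kinetically: 10 s baseline, 3 min after compound (agonist portion), then 2 min after EC20 capsaicin (allosteric enhancer portion). Calcium-bound dye fluorescence at 480/520 nm.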
Menin MLL FP FL – displaces fluorescein MLL peptide from human menin; 290,000 tested, under 10 active; AID 1766; Fluorescence polarization, fluorescein-MLL peptide displacement from menin; FP activity change, % at 61.4 µM; inconclusive = falling polarisation curve, or a change in total fluorescence; inactive = total fluorescence flat and polarisation flat or rising; no compound was filed as active; the % refers to the polarisation; negative = inhibition;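 note: % of control where 0% means no effect; inhibitors lower the polarisation; unlabelled MLL peptide was the positive control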
PINK1 expr mod – changes PINK1 expression; PINK1 immunofluorescence, high-content cytometry, 24 h; Potency, µM (highest dose often 76.6 µM), without a hit: at the highest dose activation (PINK1 increase), hits mostly activators; 410,000 compounds, 0.2% hits; active = well fitted activation curve with a large enough effect; inconclusive = small, poorly fitted or top-dose-only effect; inactive = flat fitted curve, though single readings scatter; cell line not stated here;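 note: potency is the fitted concentration of half-maximal effect; % of control where 0% means no effect; nearly all actives have a fitted effect of over 65% in size; a mitochondrial uncoupler was the plate control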
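Compound titrations (5 concentrations, 24 h) on a stable cell line; DMSO and CCCP controls. Endpoint: fixed-cell PINK1 immunofluorescence with mitochondrial, cell and nuclear markers, scanned by microplate cytometer.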
TRPML1 agonist – activates the human TRPML1 channel. TRPML1-expressing cells, Ca2+ dye fluorescence, FDSS; host cell line not named in the record; reference of the full effect not given here. 410,000 compounds, 0.12% hits. activation, % (no concentration beside the values); in the data active = activation above about 50%; inconclusive = about 30% to 50%; inactive = below about 30%; note: 0% is about no effect; the text of the record puts the active cut at 80%
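Agonist activity was taken from a 110 s kinetic Ca2+ dye read on the FDSS after pinning compounds onto TRPML1-DL cells. The cells were seeded at 1,500/well with Tet inducer, incubated about 16 h, then dye-loaded at room temperature.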
TRPML1 blocker – blocks the human TRPML1 channel | 390,000 compounds, 0.02% hits | Q9GZU1 | TRPML1-inducible cells, Ca2+ dye fluorescence, FDSS; stronger effect = lower value; inhibition of EC80 agonist-evoked calcium signal | activity change, negative = inhibition, % (no concentration beside the values); in the data active means activity change below about -50%; inconclusive means about -30% to -50%; inactive means above about -30%;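 note: stimulus is agonist 54-4 at its EC80 concentration; % is set by controls: 0 for no effect and ±100 for the full control effect; compound concentration not given in the record; the text of the record puts the active cut at -80%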
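Tet-induced TRPML1-DL cells loaded with Ca8 no-wash calcium dye were read kinetically on FDSS. Compound addition was followed by EC80 agonist 54-4 (4 uM final); inhibition was read over 110 s.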
* marks the source's active call; other numbers are inactive results; ? = inconclusive; / = not tested or not shown; [ ] = another dose, or the depositor's remark.

SMILES | Sfp PPTase inh | ClpP mod | TRPV1 potentiator | Menin MLL FP FL | PINK1 expr mod | TRPML1 agonist | TRPML1 blocker
N#Cc1cccc(NC(=O)c2cc(C3CCCCN3C(=O)c3cccs3)on2)c1 (stereo not drawn) | / | -0.5% | / | / | 0.2% | 0.4 | /
O=C(Nc1nnc(-c2cccs2)o1)C1CC1 | ? | 5.4% | 3 | 0.8 | 0.4% | 0.0 | -1
Cc1onc(-c2ccc(Cl)cc2Cl)c1-c1csc(N/N=C/c2ccccc2Cl)n1 | 16% | / | / | 1.2 | 5.1% | -0.3 | 0
CCCCn1nnnc1C(c1cc2ccccc2o1)N1CCN(c2ccncc2)CC1 (stereo not drawn) | / | -3.6% | / | / | 0.5% | 0.0 | /
Cc1cc(C)c(S(=O)(=O)n2cnc3ccccc32)c(C)c1 | -7% | 0.8% | 1 | 2.8 | 2.7%[38.3 µM] | 0.1 | 2
Cc1c(Cl)cccc1NC(=O)Cc1ccc([N+](=O)[O-])cc1 | -2% | / | 11 | 0.9 | 8.6% | -0.5 | 7
CNC(=O)c1cc2cc(Cc3ccccc3Cl)ccc2oc1=O | -4% | -2.1% | ? | 0.3 | 3.9% | -0.3 | 12
COC(=O)c1c(-c2ccc(SC)cc2)sc2ccccc12 | / | 4.3% | 4 | / | 6.8% | 1.2 | 5
Cc1scc(C(=O)N/N=C/c2ccc(OC(C)C)cc2)c1C | -10% | -3.6% | -5 | 3.9 | 1.1% | 1.8 | -4
O=C(CCS(=O)(=O)c1cccc2nsnc12)NC1CCCCCC1 | -20% | -2.5% | -8 | 1.1 | -2.1% | 0.2 | 1
Cc1nn(-c2ccc(N3CCCC3)nn2)c(C)c1CCC(=O)NCc1ccccc1F | / | -12% | / | / | 2.1% | 1.0 | -11
COc1cc(C2C(=O)N(C3CCCCCC3)CC(=O)N2CCc2ccccc2)ccc1OC(C)C (stereo not drawn) | / | 4.2% | / | / | 0.2% | -0.2 | -19
Cc1cccc(NS(=O)(=O)c2nnc(NC(=O)CC(C)C)s2)c1 | 6% | 0.7% | -4 | -8.9 | -0.1% | 2.0 | -16
O=C(NCc1ccccc1)c1cc(C2COCCN2C(=O)c2ccc3c(c2)CCO3)on1 (stereo not drawn) | / | -1.3% | / | / | 2.1% | -0.6 | /
c1ccc2c(c1)N1CCCN=C1N2CCN1CCCCC1 | 11% | -0.8% | 1 | 1.0 | -2.4% | 2.4 | 7
CC(C)CNc1cc(N2CCCC2)ccc1[N+](=O)[O-] | -26% | 0.3% | -10 | -2.3 | / | 2.3 | 11
COc1ccc(NC(=S)N2CCC(NC(=O)c3ccc(OC)cc3)CC2)cc1 | 5% | / | -9 | -12 | 0.5% | 0.9 | -9
Cc1cccc(-c2nc(=S)c3c(o2)CCCC3)c1 | -27% | -2.9% | -1 | -0.6 | -7.9%[38.3 µM] | 0.3 | -19
CCCN(Cc1nnc(-c2ccccc2Cl)o1)C(=O)c1cc(S(=O)(=O)N2CCOCC2)ccc1F | / | -0.8% | -3 | / | 0.7% | -0.2 | 8
CC1(/[N+]([O-])=C/c2ccc(Cl)cc2Cl)CCCCC1=O (stereo not drawn) | -1% | / | / | -5.4 | -0.7% | 1.2 | -4
CCOc1ccc2nc(NC(=O)CSc3nc(-c4ccccc4)c(C#N)c(=O)[nH]3)sc2c1 | 9% | / | 9 | 19 | 0.5% | -0.4 | 2
O=C(CN1C(=O)COc2ccc(S(=O)(=O)N3CCCC3)cc21)N1CCN(c2ccc(Cl)cc2)CC1 | / | 2.1% | / | / | 8.0% | 1.3 | -1
CCN(CC)CCCNc1nc(SC)nc2sc3c(c12)CCN(C)C3 | -1% | / | -1 | -2.1 | / | / | /
NC(=O)c1ccc(NC(=O)CSC2=Nc3ccccc3C3CC=NN23)cc1 (stereo not drawn) | 6% | -11% | 2 | 5.5 | 4.9% | 0.4 | 12
COc1ccc(NC(=O)c2cncn2-c2ccccc2)cc1 | -1% | / | 5 | -1.8 | -0.8% | -0.3 | 7
CCCNC(=O)NCCc1ccncc1 | 22% | -0.2% | 8 | -2.1 | -1.8% | -0.6 | 13
N#CC(=C1C=C(Br)C(=NO)C=C1Cl)c1ccc(Cl)cc1 | / | 1.4% | / | / | 3.1% | -0.1 | 16
CCN(CC)C(=O)N1CCn2c(nc3ccccc32)C1 | 25% | 1.1% | -6 | -8.7 | 1.4% | -0.7 | 0
CCOc1ccc(NC(=O)c2c(NC(=O)Cc3ccccc3)sc3c2CCCCC3)cc1 | / | -1.1% | / | / | 4.6% | 0.5 | 1
CCNC(=O)N1CCN(/[N+]([O-])=N/Oc2ccc([N+](=O)[O-])cc2[N+](=O)[O-])CC1 | / | / | / | / | -1.1% | 3.5 | 1
CN1CCN(C(=O)c2cccc(-c3cccc4nccn34)c2)CC1 | / | 2.3% | / | / | 0.5% | -0.2 | /
C=CCNC(=O)CSc1nnc(-c2ccccn2)n1Cc1ccccc1 | 5% | -1.0% | -21 | 4.9 | -0.7% | 0.1 | 90
Cc1cc(-c2nnc(-c3cccc(Cl)c3)o2)no1 | 18% | / | / | 0.1 | 1.7% | 0.5 | -14
O=C1c2oc3ccccc3c(=O)c2C(c2cccc(F)c2)N1CCCO (stereo not drawn) | 8% | -0.7% | -2 | 7.6 | -0.6% | -0.2 | -4
C[C@H](CO)N1C[C@H](C)[C@H](CN(C)Cc2ccc(Oc3ccccc3)cc2)Oc2cc(Br)ccc2S1(=O)=O | / | -2.9% | / | / | 25% | 1.3 | 44
CCc1cccc2c(C(=O)CSc3nnc(-c4ccoc4C)n3C)c[nH]c12 | 0% | -0.3% | 2 | -1.7 | 15%[38.3 µM] | 0.8 | 3
CCN(CC)S(=O)(=O)c1cccc(C(=O)N/N=C/c2ccc([N+](=O)[O-])o2)c1 | 5% | -2.3% | 1 | 9.1 | 4.1% | 0.0 | 1
CCN(CC(=O)Nc1cccc(OC)c1)CC(=O)Nc1cccc2ccccc12 | / | 2.9% | 0 | / | 2.2% | 0.5 | -4
S=C(NCCCN1CCOCC1)NN=C1c2ccccc2-c2ccccc21 | / | -1.7% | / | / | 2.2% | 0.0 | 7
CC(C)c1ccc(CN2C(=O)NC3(CCCCCC3)C2=O)cc1 | 15% | -3.7% | -7 | 0.7 | 3.3% | -1.5 | 31

Continued; it opens with the two that closed the last part.
SMILES | Sfp PPTase inh | ClpP mod | TRPV1 potentiator | Menin MLL FP FL | PINK1 expr mod | TRPML1 agonist | TRPML1 blocker
S=C(NCCCN1CCOCC1)NN=C1c2ccccc2-c2ccccc21 | / | -1.7% | / | / | 2.2% | 0.0 | 7
CC(C)c1ccc(CN2C(=O)NC3(CCCCCC3)C2=O)cc1 | 15% | -3.7% | -7 | 0.7 | 3.3% | -1.5 | 31
CCOC(=O)c1cc2c(=O)n3ccccc3nc2n(CC2CCCO2)c1=NC(=O)c1ccc(F)cc1 (stereo not drawn) | / | 3.9% | / | / | -0.1% | 0.2 | 2
CC(C)[C@H](NC(=O)OCc1ccccc1)C(=O)OCC(=O)NCCc1ccccc1 | 11% | 0.5% | 17 | / | -0.3% | 2.2 | -5
COc1cccc(NC(=O)c2nn(-c3ccc(C)cc3)c(=O)n(C)c2=O)c1 | / | 2.0% | / | / | 0.4% | -0.2 | -10
O=C(CSc1nccn1-c1ccccc1)NO | 4% | -0.6% | 11 | 0.3 | 2.5% | / | /
CNC(=S)NC1CC2CCCC(C1)N2Cc1ccccc1OC (stereo not drawn) | 8% | -1.4% | -10 | 2.4 | 1.2% | 0.7 | 9
COc1ccc2c(c1)C1OCCC1C(c1ccco1)N2 (stereo not drawn) | / | 3.2% | / | / | 1.6% | 1.9 | -5
CC(C)Oc1ccc(CNC(=O)c2cccc(NC(=O)N3CCSc4ncccc43)c2)cc1 | / | ? | / | / | -1.6% | 1.3 | -21
Cc1cccc(NC(=O)CCN2C(=O)C3C4C=CC(C4)C3C2=O)c1 (stereo not drawn) | 16% | -1.9% | -17 | 2.3 | 3.9%[38.3 µM] | 0.6 | 18
Cc1ccc(CNC(=O)Cn2c(=O)n(Cc3ccccc3)c(=O)c3c2c2cc(C)ccc2n3C)cc1 | / | -16% | / | / | 0.3% | -0.2 | 1
O=C(NC(=S)NCCO)c1sc2ccccc2c1Cl | ? | 2.2% | -14 | 0.9 | -0.3% | 0.3 | -1
COc1cccc(C2CC(c3cccs3)=NN2S(C)(=O)=O)c1 (stereo not drawn) | 5% | / | -3 | 9.9 | 2.1% | 0.0 | 7
COc1cccc(CNC(=O)c2cc(S(=O)(=O)N3CCCCC3)cn2C)c1 | / | 0.4% | / | / | -3.9% | 0.2 | 5
COCCNC(=O)C(c1ccc(C)cc1)N(C(=O)CCC(=O)Nc1ccccn1)C1CCCC1 (stereo not drawn) | 9% | / | 10 | 4.9 | / | / | /
CN(C)c1ccnc2sc3c(SCc4ccc(Cl)cc4)ncnc3c12 | 19% | -28% | 4 | 4.2 | 4.9% | -0.3 | 4
CCC/C=C/c1ccc(CN2C(C(C)C)C(=O)N(Cc3cn(CCOCOC)nn3)CCS2(=O)=O)cc1 (stereo not drawn) | / | -1.6% | / | / | 0.3% | -0.3 | 13
CCC(Sc1ncccc1C(=O)OC(C)C)C(=O)N1CCOCC1 (stereo not drawn) | 19% | -0.5% | -6 | 0.7 | 1.2%[38.3 µM] | 0.2 | -2
COc1ccccc1OC(C)C(=O)N1CCN(Cc2ccc3c(c2)OCO3)CC1 (stereo not drawn) | 4% | / | 2 | -2.0 | -1.1% | 0.9 | 36
Cc1cccc2cc(C#N)c(SCC(=O)NCC3CCCO3)nc12 (stereo not drawn) | -21% | -8.2% | 2 | 7.8 | 1.0% | -1.1 | -7

A few values from above:
For TRPML1 blocker, CC(C)CNc1cc(N2CCCC2)ccc1[N+](=O)[O-] reads 11
For TRPML1 agonist, CCOc1ccc2nc(NC(=O)CSc3nc(-c4ccccc4)c(C#N)c(=O)[nH]3)sc2c1 reads -0.4
For Menin MLL FP FL, COc1cccc(C2CC(c3cccs3)=NN2S(C)(=O)=O)c1 (stereo not drawn) reads 9.9
For ClpP mod, Cc1cccc(NC(=O)CCN2C(=O)C3C4C=CC(C4)C3C2=O)c1 (stereo not drawn) reads -1.9%
For PINK1 expr mod, O=C(CSc1nccn1-c1ccccc1)NO reads 2.5%
